# Rce1 inh – yeast Rce1p protease inhibitors, primary screen, biochemical, fluorescence, cell-free homogeneous. 290,000 compounds, 0.27% hits. calls only. CAAX prenyl protease 2 (Saccharomyces cerevisiae (strain ATCC 204508 / S288c)), Q03530. yeast membranes, quenched prenylated peptide cleavage fluorescence;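 active = fall in fluorescence gain of 50% or more versus controls, with final raw signal at or below 3038400; inconclusive = same 50% fall but final raw signal above 3038400; inactive = fall in fluorescence gain under 50%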;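 note: plate controls were neutral control wells for no effect and wells lacking membranes for full effect; tested at 10 µM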
# HIV Env fusion – inhibitors of HIV-1 Env-driven cell-cell fusion, primary screen, HeLa-JRFL effector, CEM21 target cells, luciferase; inhibition, % at 12.3 µM; 360,000 compounds, 1.1% hits;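 active = mean replicate inhibition score of at least 50 and every replicate individually at or above 50; inconclusive = only one of the two criteria met; inactive = mean below 50 and not all replicates reaching 50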;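 note: 0% = plate neutral controls and 100% = maraviroc near 300 nM; one replicate is shown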
# eIF4H inh – human eIF4H binding inhibitors, primary screen, translation initiation inhibitor project, biochemical, uHTS, fluorescence polarization; Eukaryotic translation initiation factor 4H (Homo sapiens), Q15056; eIF4H fluorescence polarization binding assay; inhibition, % at 35 µM; 290,000 compounds, 0.94% hits; AID 2012, 2009;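 active = 50% or more with normal probe brightness, or confirmed in later tests; inconclusive = above 50% with abnormal brightness, or retests that disagree; inactive = below 50% or failed in later tests; about a fifth of its hits are not listed in these tables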;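 note: calls also rest on retests at 20 µM and on dose response follow-up; 0% = protein and probe with vehicle and 100% = probe without protein; strong numbers were not always called active; many hits fall short of the cut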
# UUG fidelity – modulators of yeast start codon fidelity, primary screen, whole organism, S. cerevisiae, single point, plate reader. 350,000 compounds, 0.13% hits. activity score, % at 18.7 µM. S. cerevisiae UUG-firefly luciferase reporter, luminescence/redox ratio. AID 602363, 2012;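 active = replicate mean at a twofold rise or more, about +100% in these data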;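 note: firefly luciferase made from a UUG start codon reports start codon fidelity; reporter light over untreated wells divided by growth signal over untreated wells; some hits fall short of that in this replicate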
# MT1-MMP act inh – blockers of MT1-MMP proenzyme processing, primary screen, HT1080 RFP-PRO-GFP cells, GFP/RFP fluorescence | GFP/RFP ratio change, % at 20 µM | Matrix metalloproteinase-14 (Homo sapiens), P50281 | 360,000 compounds, 0.061% hits | GFP/RFP ratio fluorescence, overnight; percent of plate control window, DMSO zero | AID 651647, 2012;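 active = GFP/RFP ratio change of at least 30% with cell ATP level not reduced by more than half and red fluorescence within 50% of control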; note: strong numbers were not always called active
#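 system = RFP-PRO-GFP reporter HT1080 cells | dosing = 20 µM single dose, 1% DMSO | timing = overnight cell settling, then overnight compound exposure, 37 °C, 5% CO2 | read-out basis = GFP/RFP fluorescence ratio | controls = DMSO and RFP-L50D-GFP cell wells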
# PABP polyA inh – PABP poly(A) RNA binding inhibitors, primary screen, biochemical, fluorescence polarization, uHTS | 290,000 compounds, 1% hits | inhibition, % at 35 µM | AID 2014, 2009;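 active = 50% or more with normal probe brightness, or confirmed in later tests; inconclusive = above 50% with abnormal brightness, or retests that disagree; inactive = below 50% or failed in later tests; about a fifth of its hits are not listed in these tables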;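 note: calls also rest on retests at 20 µM and on dose response follow-up; controls were probe without protein and protein plus probe with vehicle; some compounds called inactive have numbers as strong as hits; many hits fall short of the cut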
# Target sequence (P11940 whole entry, looked up): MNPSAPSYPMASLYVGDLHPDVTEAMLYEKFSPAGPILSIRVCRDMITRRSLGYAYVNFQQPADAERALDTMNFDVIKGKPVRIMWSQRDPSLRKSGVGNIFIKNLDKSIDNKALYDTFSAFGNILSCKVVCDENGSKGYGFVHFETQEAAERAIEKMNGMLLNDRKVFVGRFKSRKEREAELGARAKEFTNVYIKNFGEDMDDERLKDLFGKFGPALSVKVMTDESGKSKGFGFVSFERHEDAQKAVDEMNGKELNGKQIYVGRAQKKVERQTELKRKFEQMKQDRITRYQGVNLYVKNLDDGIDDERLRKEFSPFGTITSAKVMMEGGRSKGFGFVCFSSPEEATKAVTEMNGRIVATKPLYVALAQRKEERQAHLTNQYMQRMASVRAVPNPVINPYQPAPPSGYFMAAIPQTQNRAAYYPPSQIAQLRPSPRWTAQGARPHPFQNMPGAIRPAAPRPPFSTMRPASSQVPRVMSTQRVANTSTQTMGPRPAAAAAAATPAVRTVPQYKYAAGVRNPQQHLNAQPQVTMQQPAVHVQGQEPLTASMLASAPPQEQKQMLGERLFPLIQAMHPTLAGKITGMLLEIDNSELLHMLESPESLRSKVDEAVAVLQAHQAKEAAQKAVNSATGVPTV
# CSC inhib – cancer stem cell viability inhibitors, primary screen, luminescence; cancer stem cell-like cells viability; inhibition, % at 7.5 µM; 300,000 compounds, 1.1% hits;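 active = mean at 75% or more and at least half the replicates too; inconclusive = mean and replicates disagree; tested in HMLE shEcad cells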;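 note: 0% = median of negative and 100% = median of positive control wells; the first replicate is given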
# eIF4H inh retest – recorded beside eIF4H inh, whose call it bears; inhibition, %; compound at 20 µM; confirmation average;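 mean of two retest wells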
# PABP polyA inh retest – also measured in PABP polyA inh; calls as there; inhibition, %; compound at 20 µM; confirmation repeats;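 mean of two retest wells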
# MT1-MMP act inh RFP – also measured in MT1-MMP act inh; calls as there; RFP signal change, %; measured here: RFP expression control read;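 0 = vehicle wells; hits needed this value within 50% of zero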
# Numbers without * were called inactive; i = inactive; ? = inconclusive; . = no result given.
SMILES,Rce1 inh,HIV Env fusion,eIF4H inh,UUG fidelity,MT1-MMP act inh,MT1-MMP act inh RFP,PABP polyA inh,CSC inhib,others
COCCN(C(=O)Nc1ccccc1OC)c1nc2ccccc2s1,i,3,2,4,-3,-4,-4,1,
O=C1[C@H]2[C@@H](c3ccc(Cl)cc3)N3C(=O)N(c4cccc(Cl)c4)C(=O)[C@@]3(Cc3ccccc3)[C@H]2C(=O)N1C1CCCCC1,i,97*,.,-7,0,-5,.,10,
O=C(CCCn1c(SCC(=O)c2ccccc2)nc2ccccc2c1=O)NCC1CCCO1 (stereo unspecified),i,22,3,-5,3,-4,0,-10,
COc1ccc(CCN(C)C(=O)c2ccc(S(=O)(=O)NCc3ccco3)cc2)cc1OC,i,12,-3,1,2,1,48,2,
Cc1cc(C)nc(NC(=O)/C=C/c2cccs2)c1,.,.,7,0,-38,-29,5,86*,
CCn1c(=O)cc(N2CCCCC2)[nH]c1=O,i,.,-6,.,10,6,-2,-19,
Cn1c(SCC(=O)Nc2ccc3nc(SCC(=O)N4CCCC4)sc3c2)nnc1-c1ccc(N)cc1,.,.,82,-16,-1,-5,19,.,eIF4H inh retest=-6;PABP polyA inh retest=26
Cc1cc(NC(=O)NCc2ccccc2)c(=O)n(Cc2ccc(F)cc2)c1,i,10,-14,-15,-2,-10,-13,20,
COc1ccc(-n2c(Cc3cccn3C)nnc2SCC(=O)Nc2ccccc2OC)cc1,i,10,-14,-7,-3,7,-15,6,
Cc1ccc(C)c2[nH]c(=O)c(C(c3nnnn3CCc3ccccc3)N3CCOCC3)cc12 (stereo unspecified),i,.,6,23,4,2,2,0,
CCOC(=O)CN(Cc1sccc1C)C(=O)Nc1ccc(OC)cc1OC,i,.,-2,.,2,2,-5,.,
COc1ccc(CNC(=O)COC(=O)c2cc3ccccc3cc2O)cc1OC,.,.,.,13,4,2,.,-9,
CCN(CC)C(CNC(=O)CSc1nnnn1-c1ccc(C)c(C)c1)c1ccco1 (stereo unspecified),.,-11,.,.,-1,3,.,-1,
COc1cc(NC(=O)CN2CC(c3ccccc3)CC2=O)cc(OC)c1 (stereo unspecified),i,-4,1,-4,1,4,10,-4,
Cc1ccc2oc(Nc3nc(C)c(C)c(C)n3)nc2c1,i,-40,-6,.,1,4,-6,-1,
CCOC(=O)CON1C(=O)C(=O)N(OCC(=O)OCC)[C@H]2CCCC[C@H]21,i,-11,3,.,0,8,3,-4,
CCOc1ccc(CCNC(=O)c2ccc3nc(CC)c(CC)nc3c2)cc1,i,8,-10,-7,1,0,-4,11,
Cc1cc(=O)[nH]c(=O)n1Cc1ccccc1,i,0,-6,196*,-2,0,7,-5,
Cc1cccc(OCC(=O)Nc2ccc(S(=O)(=O)Nc3onc(C)c3C)cc2)c1C,i,?,-4,-3,1,0,9,32,
COc1ccc(-c2csc(NC(C)c3nc4cc(Cl)c(N5CCCCC5)cc4n3CCOCCO)n2)cc1 (stereo unspecified),i,-25,.,6,3,-5,.,-3,
CCn1c2ccccc2c2cc(NC(=O)COC(=O)c3cc(Cl)c(N)cc3OC)ccc21,i,14,-3,-12,-3,-4,-9,-23,
CCOc1cc(CN2CCC(n3nccc3NC(=O)C3CC3)CC2)ccc1O,i,-2,-13,-3,0,0,0,-3,
CC1Cc2cc(S(=O)(=O)N3CCN(C)CC3)ccc2N1C(=O)C1CC1 (stereo unspecified),i,-2,.,-11,0,1,.,13,
CCOc1ccc(N2CC(=O)N(c3ccc(OCC)cc3)CC2=O)cc1,i,14,-3,-7,-4,-3,-5,-17,
CCOc1ccc(NS(=O)(=O)c2ccc(C(=O)NCC(c3ccccc3OC)N3CCCC3)cc2)cc1 (stereo unspecified),i,-7,.,.,1,-4,.,-6,
CCN(CC)C(=O)C(=O)c1cn(CC(=O)N2CCc3ccccc3C2)c2ccccc12,i,19,-1,2,0,1,-18,-12,
O=C(COC(=O)CNC(=O)c1ccc(Cl)cc1Cl)NC1CC1,.,-12,.,-17,-7,2,.,-19,
COc1ccc(CCNC(=O)CN2C(=O)CSc3ccc(S(=O)(=O)N4CCOCC4)cc32)cc1OC,i,5,1,2,-2,1,6,16,
Cc1cccc(NC(=O)c2cc(S(=O)(=O)N3CCCCC3)c[nH]2)c1,.,-11,.,-23,8,4,.,.,
O=C1OC(Oc2ccc(Br)cc2)(c2ccccc2)c2ccccc21 (stereo unspecified),.,-12,.,-7,2,-2,.,.,
Cc1cc(O)c(/C=N/Nc2ccccc2)c(=O)o1,i,.,-5,-12,-3,-2,-2,.,
Cc1ccccc1C(=O)N(CC(=O)Nc1sc(C)c(C)c1C(N)=O)C1CCCC1,i,4,-7,21,0,0,-1,3,
CCOC(=O)c1ccc(NC(=O)COC(=O)Cc2csc(-c3ccccc3)n2)cc1,i,-4,6,1,-6,-2,5,-23,
Cc1cc(C(=O)N/N=C/c2ccc([N+](=O)[O-])o2)c(C)o1,i,-25,39,.,-5,-16,14,8,
N#Cc1ccc(S(=O)(=O)NC[C@H]2O[C@@H](n3cnc4c(N)ncnc43)[C@H](O)[C@@H]2O)cc1,.,0,.,-10,4,11,.,.,
CC(C)CN1C=C2C(=O)C(C)(OC(=O)CCc3ccccc3)C(=O)C=C2C=C1c1ccc(C#N)cc1 (stereo unspecified),i,-9,40,-6,-5,2,22,-4,
CSc1ccc(Cl)c(C(=O)NCCOc2ccccc2)c1,i,.,-5,7,4,9,-9,-7,
FC(F)(F)c1nnc2ccc(N3CCOCC3)nn12,i,-12,1,-16,1,1,13,-6,
CCOc1ccc(OCCC(=O)N(CC)CC(=O)NCc2ccc(Cl)cc2)cc1,i,5,.,.,-2,-6,.,-11,
CN(C(=O)COc1ncnc2sccc12)c1ccccc1,i,-13,3,-3,3,6,-2,-10,
N#CC1=C(N)OC2=C(C(=O)CCC2)C1c1cc2c(cc1Cl)OCO2 (stereo unspecified),i,?,4,-11,-5,1,9,-1,
COc1cc(Cl)c(C)cc1NC(=O)Cn1c(NCCO)nc2ccccc21,i,19,-11,-12,2,-1,-14,-1,
Oc1ccc(-c2n[nH]c(=S)n2-c2ccc3c(c2)OCCO3)c(O)c1,i,-2,28,-9,-11,-13,-8,58,
COc1ccc(NC(=O)c2ccc3c(=O)n(-c4ccc(OC)cc4OC)c(=S)[nH]c3c2)c(OC)c1,i,5,3,.,-2,-15,-6,-13,
NC(=O)C1(N2CCCCC2)CCN(S(=O)(=O)c2ccc(Cl)s2)CC1,i,-2,.,5,-2,-11,.,8,
CC(Oc1ccc(Cl)cc1)C(=O)Nc1ncccn1 (stereo unspecified),i,-16,8,-9,-1,0,-6,-9,
CC(=O)Nc1ccc(S(=O)(=O)N2CCC(NC(C)=O)(c3cccc(F)c3)CC2)cc1,i,.,-5,-3,-1,2,4,-9,
Cc1cccc(OCc2ccc(C(=O)Nc3ccc(F)cc3)cc2)c1,i,19,-11,.,3,0,-14,7,
N#CCC(=O)Nc1ccc(C(=O)OCC(=O)N2CCCC2=O)cc1,i,12,.,-11,0,4,.,5,
COc1cccc(NC(=O)c2cc([N+](=O)[O-])ccc2NC(=O)CNCC2CCCO2)c1 (stereo unspecified),i,-5,4,.,3,-1,-3,-7,
Cc1c(C#N)c(N)c(C(=O)c2ccccc2)n1Cc1ccccc1,i,.,2,.,1,6,-2,3,
Cc1nc2nc(SCC(=O)NCc3ccco3)nn2c(C)c1Cc1c(F)cccc1Cl,i,-11,3,1,-1,-4,-6,2,
Cc1cc(=O)[nH]c(SCC(=O)N2CCCCC2)n1,i,-5,9,-10,-1,1,-6,-5,
O=C(c1cccc(C(F)(F)F)c1)c1c[nH]c(C(=O)NCCCN2CCOCC2)c1,i,21,7,.,0,2,-2,-22,
COCCCN1CN=C(NS(=O)(=O)c2ccc(C)cc2)NC1,.,14,1,-9,-1,-2,-1,-11,
Cc1cc(OCC(=O)N2CCC(C(N)=O)CC2)c2c(C)cc(=O)oc2c1,i,.,-12,-10,-2,-3,0,-2,
CCN(CC)S(=O)(=O)c1ccc(NCCc2ccccn2)nc1,i,-6,-14,-13,-4,1,7,-14,
COc1ccc(/C=C2\N=C(SC)SC2=O)cc1OC,i,.,-6,-9,-3,1,7,.,
COc1ccccc1CCC(=O)OCC(=O)Nc1cc(C)nn1-c1ccccc1,i,6,.,-14,2,4,.,-7,
CCOC(=O)N1CCN(C(=S)NC(=O)c2cc(Br)ccc2Cl)CC1,i,6,32,.,6,2,-2,-11,
# Next section.
SMILES,Rce1 inh,HIV Env fusion,eIF4H inh,UUG fidelity,MT1-MMP act inh,MT1-MMP act inh RFP,PABP polyA inh,CSC inhib,others
N#Cc1c(/N=C/c2cccs2)sc2c1CCCCC2,i,i,-4,.,6,6,-14,-1,
NC(=NC(=O)c1ccccc1)N1CCN(C(c2ccccc2)c2ccccc2)CC1,i,9,-13,4,-2,-11,-1,8,
CN(Cc1ccccc1)C(=O)c1ccc(NC(=O)Cc2cccc(NC(=O)C3CCCN(C(=O)CCc4ccccc4)C3)c2)cc1 (stereo unspecified),.,18,.,-10,-1,-23,.,-3,
CC(=O)Nc1ccc2c(c1)C(N1CC3CCC(CC3)C1)c1ccccc1-2 (stereo unspecified),.,67*,.,-7,-4,-6,.,.,
Cn1c(SCc2nc(-c3cccs3)no2)nnc1C1CCCCC1,i,.,1,-3,0,0,2,2,
O=C(CN1CCN(Cc2ccc(Cl)cc2)CC1)N/N=C/c1ccncc1,i,-33,-6,.,1,4,1,-8,
CC(OC(=O)c1ccc(NC(=O)CC#N)cc1)C(=O)Nc1ccc(Oc2ccccc2)cc1 (stereo unspecified),i,10,54*,0,-4,0,0,8,eIF4H inh retest=69*;PABP polyA inh retest=24
CCc1nc2c(OCCOc3ccccc3)cccn2c1N(C)C(=O)c1cccs1,.,-4,.,-7,-5,-4,.,.,
CN(C)S(=O)(=O)c1cccc(COC(=O)CN2CCCCCC2=O)c1,i,-17,-14,-4,-2,2,4,-15,
CCc1ccc(OCC(=O)NNC(=O)CSc2ncnc3sc(C)c(C)c23)cc1,i,-29,-2,-19,3,1,4,-19,
CCN(CC)C(=O)c1cnn(-c2ccccc2)c1NC(=O)c1ccco1,i,.,-8,-12,4,-4,0,-12,
CSc1nnnn1-c1c(C)cc(C)cc1C,i,15,11,.,1,1,-1,-3,
CCn1cc(C(=O)NCc2ccc(Cl)cc2)c(=O)c2cc(S(=O)(=O)N(C)C)ccc21,i,19,2,-1,-1,-1,6,17,
CC(C)(C)c1ccc(C(=O)c2c[nH]c(C(=O)NCC3CCCO3)c2)cc1 (stereo unspecified),i,.,-8,-2,1,-6,-6,-14,
Cn1nc(C(=O)OCC(=O)N2CCc3ccccc32)c2ccccc2c1=O,.,-3,6,6,1,0,-7,8,

# Assay outcomes deposited in PubChem BioAssay by several laboratories.
